# Screens as filed in PubChem.
# Vaccinia mCherry: inhibitors of vaccinia virus infection (mCherry reporter signal); Vaccinia virus mCherry reporter infection, fluorescence; about a quarter of the inactives have no number; AID 720579; Potency, µM (top dose mostly 36.5 µM), without a hit: top-dose activity change, negative = inhibition, actives largely listed as inhibitors; 0.63% of 310,000 active; active = well fitted inhibition curve with a large enough effect; inconclusive = small, poorly fitted or top-dose-only effect; inactive = no such curve, though single readings can be large or run the other way; tested in A549 cells; note: nearly all actives have a fitted effect of over 35% in size; inactives centre near -10
# VACV Venus inh: vaccinia inhibition (Venus reporter) | Potency, µM (top dose mostly 36.5 µM), for inactives: at the top dose activity change, negative = inhibition, actives largely listed as inhibitors | Vaccinia virus Venus reporter expression, fluorescence | 0.46% of 330,000 active | AID 720580; active means well fitted inhibition curve with a large enough effect; inconclusive means small, poorly fitted or top-dose-only effect; inactive means no such curve, though single readings can be large or run the other way; tested in A549 cells; note: nearly all actives have a fitted effect of over 30% in size; inactives centre near -10
# The depositor's hits bear a star; i = inactive; ? = inconclusive; / = no result given; [ ] = remark or other dose. % is set by controls: 0 for no effect and ±100 for the full control effect; potency is the fitted concentration of half-maximal effect. This is a random part of the collection; overall some 0.82% were active at least once.
SMILES,Vaccinia mCherry,VACV Venus inh
COc1ccc(C2NC(=O)c3ccccc3N2)c(OC)c1OC (configuration not stated),-4%,?
O=C(COc1ccc2ccccc2c1)Nc1ccc(Cc2ccncc2)cc1,-27%,-26%
CCOc1ccc(S(=O)(=O)N(CC(=O)Nc2cccnc2)c2ccc(F)cc2)cc1,-23%,-14%
Fc1ccc(CNC(=S)NC2CCCC2)cc1,-10%,-15%
CCOc1cccc2cc(C(=O)NCCC3=CCCCC3)c(=O)oc12,-9%,2%
COC(=O)c1ccc(NC(=O)COC(=O)CSc2nc(C)cc(C)n2)cc1,-6%,-6%
CCN(CC)CCNC(=S)Nc1ccc(Cl)cc1,-23%,-15%
Cc1cc(C)cc(NC(=O)C(OC(=O)Cn2cnc3c2c(=O)n(C)c(=O)n3C)c2ccccc2)c1 (configuration not stated),i,-4%
O=C(O)c1cccc(NC(=O)c2ccc3c(c2)C(=O)N(C2CCCCC2)C3=O)c1,-10%,-10%
Cc1ccc(C)c(SCC(=O)NCC(c2ccco2)N2CCCCC2)c1 (configuration not stated),i,-4%
COc1ccccc1C1=Nc2cccc3cccc(c23)N1,-12%,-5%
Cc1cccc2cc(CN(Cc3ccco3)C(=O)c3ccncc3)c(=O)[nH]c12,/,-25%
Cc1cccc(C)c1N1CCN(C(c2ccnc3ccccc23)c2nnnn2-c2ccc3c(c2)OCCO3)CC1 (configuration not stated),?,-15%
COc1ccc(CC(=O)NCCCCc2ccccc2)cc1OC,-25%,-11%
Cc1coc2cc3oc(=O)c(CC(=O)N4C[C@H]5C[C@@H](C4)c4cccc(=O)n4C5)c(C)c3cc12,2%,9%
CCc1cc(OCCN(C)C)ccc1Cl,-2%,-7%
Cc1ccc(C)c(N2CCN(C(=O)C3CCC(CNS(=O)(=O)c4ccc(Br)s4)CC3)CC2)c1 (configuration not stated),-17%,-12%
Cc1ccc(NC(=S)NC2CC3CCCC(C2)N3Cc2ccco2)cc1 (configuration not stated),-25%,-22%
O=C(Cc1cccc2ccccc12)NN1C(=O)C2C(C1=O)C1C=CC2C12CC2 (configuration not stated),-21%,-16%
Cc1cc(OCn2ccc(C(=O)O)n2)ccc1Cl,-2%,-19%
Cc1ccccc1C(=O)Nc1scc(-c2ccc(Br)cc2)c1C(=O)O,i,-16%
Cc1ncc([N+](=O)[O-])n1CC(O)CCl (configuration not stated),-13%,-13%
COc1cccc(CNC(=O)CN(c2cc(C)cc(C)c2)S(=O)(=O)c2c(C)noc2C)c1,13%,-8%
CCN(CC)S(=O)(=O)c1ccc2c(c1)c(=O)c(C(=O)NCc1ccccc1Cl)cn2C,-15%,-15%
Cc1ccc(-c2noc(CNC(=O)c3ccc(C(C)(C)C)cc3)n2)cc1,-4%,-6%

# Quoted from the listing:
# Result for Cc1ncc([N+](=O)[O-])n1CC(O)CCl (configuration not stated) under Vaccinia mCherry: -13%
# Result for Cc1cc(C)cc(NC(=O)C(OC(=O)Cn2cnc3c2c(=O)n(C)c(=O)n3C)c2ccccc2)c1 (configuration not stated) under VACV Venus inh: -4%
# Result for CCN(CC)CCNC(=S)Nc1ccc(Cl)cc1 under Vaccinia mCherry: -23%

# Returning to the listing, starting two compounds before the break.
SMILES,Vaccinia mCherry,VACV Venus inh
CCN(CC)S(=O)(=O)c1ccc2c(c1)c(=O)c(C(=O)NCc1ccccc1Cl)cn2C,-15%,-15%
Cc1ccc(-c2noc(CNC(=O)c3ccc(C(C)(C)C)cc3)n2)cc1,-4%,-6%
Cc1ccccc1-c1nc2scc(CCNC(=O)C(=O)Nc3ccc(F)cc3F)n2n1,2%,20%
CCc1cccc(C)c1NC(=S)N(CCN(C)C)Cc1cccs1,-18%,-6%
COc1cc(/C=N\NC(=O)c2ccc(-c3ccccc3)cc2)cc(OC)c1O,?,?
CCCOc1ccc(CC(=O)NCC2(c3ccccc3)CCOCC2)cc1OC,-7%,-14%
COc1cccc(C(=O)N2CCC[C@H]2C(=O)N2CCC[C@H]2C(=O)NCc2ccc(F)cc2F)c1,6%,-3%
COc1ccc(CNc2nc3c(-c4cccc(C)c4)nnn3c3ccccc23)cc1,?,-28%
Cc1nnc(N2CCC(C(=O)N3CCCCC3)CC2)c2nn(-c3ccc(Cl)cc3)c(C)c12,?,-26%
COC(=O)c1ccccc1NC(=O)CN1C(=O)c2ccccc2S1(=O)=O,i,-1%
Cc1ccc(S(=O)(=O)N2CCOCC2)cc1C(=O)Nc1nc(-c2cccnc2)cs1,-27%,-4%
COc1ccc(F)c(CN2CCOc3ccc(CN4CCCCC4CO)cc3C2)c1 (configuration not stated),-15%,-8%
CC(C)N=C(NC#N)SCc1ccc(F)cc1,-9%,-5%
Cc1ccc(S(=O)(=O)N2CCN(C(=O)COC(=O)c3ccc(O)cc3)CC2)c(C)c1,-20%,-18%
CCOc1ccc(N2CC(C(=O)Nc3ccccc3OC)CC2=O)cc1 (configuration not stated),-7%,-3%
CN(c1ccccc1)S(=O)(=O)c1cccc(NC(=O)Cn2cnc3c2c(=O)n(C)c(=O)n3C)c1,-15%,?
CCOc1ccc(N=c2scc(-c3ccccc3)n2CCO)cc1,?,?
COc1ccccc1OCCNC(=O)c1ccc(C)o1,-6%,4%
COc1ccc(Cn2c(C(=O)O)c(CNCCc3ccco3)c3ccc(C)cc32)cc1,-6%,2%
CCN(C(=O)CSc1nnc(-c2ccccc2Cl)n1C1CCCC1)C1CCS(=O)(=O)C1 (configuration not stated),-13%,-7%
Cc1cccc(C)c1OCC(O)CNC(C)C (configuration not stated),-13%,-1%
Nc1nnnn1/N=C/c1ccc(Br)cc1,-7%,-7%
CCNc1nc(NCC)nc(-n2nc(C)cc2C)n1,-27%,-12%
OCCN(Cc1ccccc1)CC1CCCCC1,i,-4%
COc1ccc(CC(N)c2csc(NC(=O)NCCc3ccc(OC)c(OC)c3)n2)cc1 (configuration not stated),i,-13%
O=C(COC(=O)COc1ccccc1[N+](=O)[O-])NC1CCCC1,-8%,-2%
CCCCNC(=O)[C@@H]1CC=C[C@@H]2CCN(Cc3ccc(OC)c(OC)c3)C(=O)[C@@H]21,i,-7%
# Next results
SMILES,Vaccinia mCherry,VACV Venus inh
CNC(=O)C1CCC(Cn2c(=O)c3sccc3n(CC(=O)NCc3ccc(OC)cc3)c2=O)CC1 (configuration not stated),-13%,-12%
CSc1nc2nc(-c3ccccc3)cc(C(F)(F)F)n2n1,/,-14%
Cc1cc(C)cc(NC(=O)c2ccc(S(=O)(=O)C(F)F)cc2)c1,i,-16%
CCOC(=O)C(/C(C)=N/NC(=O)C1CC1c1ccccc1)C(C)C (configuration not stated),-1%,-16%
Cc1ccc(C)c(S(=O)(=O)N2CCC3(CC2)OCCN3S(=O)(=O)c2cccs2)c1,-18%,-9%
Cc1ccc(CC2C(=O)N(c3ccc(C)cc3)C(=O)C2C)cc1 (configuration not stated),i,-12%
CCOc1ccccc1/C=N/Nc1cc(C)nc2ccc(C)cc12,-15%,-11%
C/C(=N\NC(=O)c1ccc(OC2CCCC2)cc1)c1ccc(C)s1,i,-9%
Cc1ccc(NC(=O)c2cnn3c(C(F)F)cc(-c4ccccc4)nc23)cc1F,-7%,-10%
COc1cccc(NC(=O)CN(C)C(=O)COc2cc(C)ccc2Cl)c1,i,-5%
Cc1cccc(C)c1NC(=O)c1ccc(-c2ccc(Cl)cc2Cl)o1,-23%,-8%
COc1ccc(COC(=O)N/N=C(\C)CC(=O)Nc2c(C)cc(C)cc2C)cc1,-2%,-14%
CCOc1cccc(-c2nnc3sc(-c4ccco4)nn23)c1,-21%,-8%
COc1ccc(-n2nc(C(=O)N3CCN(c4cccc(C)c4)C(C)C3)c3c4ccccc4n(C)c3c2=O)cc1 (configuration not stated),-14%,-4%
O=C(NC1CCCCC1)c1cc(S(=O)(=O)N2CCOCC2)ccc1Cl,1%,-9%
CNc1cc(CSC)nc(SCc2ccc(Cl)c(Cl)c2)n1,-8%,0%
O=C(Nc1ccc(Cl)c(Cl)c1)NC1CCS(=O)(=O)C1 (configuration not stated),5%,1%
Cc1cccc(CN2C(=O)c3ccccc3S(=O)(=O)c3ccc(C(=O)N4CCN(c5cc(C)ccc5C)CC4)cc32)c1,-9%,-4%
Cc1cc(=O)oc2c(CN3CCCCC3)c(O)ccc12,-20%,-4%
COc1ccc(NC(=O)C(c2ccccc2)c2ccccc2)c(OC)c1,-3%,-17%
O=C1C2N=NN(CC(=O)N3N=C(c4cccc5ccccc45)CC3c3ccccc3)C2C(=O)N1c1ccccc1 (configuration not stated),i,-21%
Cc1ccc(-c2nc(N)n(C(=O)c3cccnc3)n2)cc1,-22%,-11%
COc1ccc2c(c1)CCc1c(C(=O)Nc3c(C)n(C)n(-c4ccccc4)c3=O)noc1-2,-7%,-7%
C=CCn1c(SCC(=O)Nc2ccc(C(=O)OCC)cc2)nnc1-c1sc(N)nc1C,/,-22%
COCc1cc(=O)n2c(-c3ccccc3OC)n[nH]c2n1,-7%,-11%
# Carrying on.
SMILES,Vaccinia mCherry,VACV Venus inh
CN(CC(=O)NCCc1ccccc1)S(=O)(=O)c1ccc(Br)s1,-3%,-19%
CCOC(=O)N1CCN(Cc2ccc3c(c2)CN(C(=O)c2noc4c2CCCC4)CCO3)CC1,-26%,-22%
C[C@H](NC(=O)C1CCN(S(=O)(=O)c2ccccc2)CC1)C(=O)NCc1cccc(Cl)c1,i,-14%
CCN(CC)C(=O)c1sc2c(c1C)c(=O)n(-c1ccc(C)c(C)c1)c(=O)n2Cc1cc(=O)n2c(C)cccc2n1,-26%,-16%
O=C(c1ccccc1NS(=O)(=O)c1ccccc1[N+](=O)[O-])N1CCOCC1,-18%,-10%
COc1ccc(C(=O)NCCCc2ccccc2)cc1OC,-10%,-5%
CC(NS(C)(=O)=O)C(c1cccs1)N1CCN(Cc2ccccc2)CC1 (configuration not stated),17%,-2%
CC(C)Oc1ccc(CNC(=O)C2CCN(Cc3cc4ccccc4n3Cc3ccccc3)CC2)cc1,-26%,-23%
COc1ccc(S(=O)(=O)NC(C)CCc2ccccc2)cc1 (configuration not stated),-21%,3%
Cc1ccc(S(=O)(=O)N2CCN(CCNC(=O)C(=O)Nc3ccc(F)cc3)CC2)cc1,-12%,-13%
CCc1nn(C(C)C(=O)N2CCN(Cc3ccccc3)CC2)c(=O)c2cc3occc3n12 (configuration not stated),/,-11%
Cc1cc(NC(=O)CSc2nnc(-c3ccccc3C)n2C)no1,i,-4%
O=c1c2ccccc2nc2n1CCN2Cc1ccc(Cl)cc1,-15%,?
O=C(C1CC1)N1N=C(c2ccncc2)CC1(O)C(F)(F)F (configuration not stated),i,2%
CCN(CC)CCSc1nnc2c3cc(F)ccc3n(Cc3ccccc3)c2n1,-3%,?
N#Cc1nc(-c2ccccc2F)oc1NCCc1ccccn1,-10%,4%
CC(Oc1ccccc1F)C(=O)NNC(=O)CCS(=O)(=O)c1ccccc1Cl (configuration not stated),?,?
Cc1ccc(C)c(S(=O)(=O)N2CCCC2CNC(=O)C(=O)NCC2CCCO2)c1 (configuration not stated),i,-2%
Cc1ccc(-n2c(C)cc(/C=C3\NC(=O)NC3=O)c2C)c(C)c1,-14%,-3%
Nc1cccc2c1C(=O)N(C(=O)c1cccc(S(=O)(=O)N3CCCCCC3)c1)C2=O,-15%,-2%
CCOc1ccc2nc(C)cc(C(=O)O)c2c1,-1%,-5%
COc1ccc(CNc2ccccc2SC)cc1OC,-27%,-15%
CCN(CC)/C(N)=N/c1nc(C)cc(C)n1,3%,-1%
COc1cc(NC(=O)c2ccccc2-n2cnnn2)cc(OC)c1,i,-5%
C#CCNC(=O)C[C@@H]1C[C@@]2(C(=O)OC)CCCCC=C2N(Cc2ccc(Cl)cc2Cl)C1=O,18%,-9%

# By substructure, the entries above containing a nitro group on carbon.
SMILES,Vaccinia mCherry,VACV Venus inh
Cc1ncc([N+](=O)[O-])n1CC(O)CCl (configuration not stated),-13%,-13%
O=C(COC(=O)COc1ccccc1[N+](=O)[O-])NC1CCCC1,-8%,-2%
O=C(c1ccccc1NS(=O)(=O)c1ccccc1[N+](=O)[O-])N1CCOCC1,-18%,-10%

# Next part.
SMILES,Vaccinia mCherry,VACV Venus inh
CCCCNC(=O)C1CCCN(Cc2nc(-c3ccc(Cl)cc3)oc2C)C1 (configuration not stated),?,?
Cc1cc(C)cc(C(=O)NCCN2CCOCC2)c1,-10%,-4%
Cc1ccc(C)c(Cn2c3ccccc3c3cnn(CC(=O)N4CCCCC4)c(=O)c32)c1,-9%,-4%
Cc1c(C)n(Cc2ccc(Cl)cc2)c2ccc(C(=O)NCCN3CCOCC3)cc12,i[7.34 µM],0%[7.34 µM]
CC(C)C[C@H](NC(=O)OC(C)(C)C)C(=O)N1CCC(C(=O)N[C@@H](Cc2c[nH]c3ccccc23)C(=O)O)CC1,-6%,-1%
CCCOc1ccc(C2c3c(oc4cc(C)c(C)cc4c3=O)C(=O)N2CCCN(C)C)cc1 (configuration not stated),-8%,-5%
CCN1CCN(Cc2ccc(NC(=O)c3ccc(C)c(NC(=O)c4nccnc4N)c3)cc2C(F)(F)F)CC1,?,?
COc1ccc(CCNC(=O)c2cc3c(F)cccc3s2)cc1OC,-5%,5%
Cc1ccc(-c2nc(S(=O)(=O)c3ccc(C)cc3)c(SCC(=O)NC3CCCCC3)o2)cc1,?,?
COc1ccc(CCNC(=O)Cn2cnc3c(cnn3C(C)(C)C)c2=O)cc1OC,-20%,-13%
Cc1cc(=S)c2ccccc2[nH]1,-23%,-19%

# Compound profiles, from the list above.
# Fc1ccc(CNC(=S)NC2CCCC2)cc1 is listed with Vaccinia mCherry: -10%; VACV Venus inh: -15%
# Cc1cc(OCn2ccc(C(=O)O)n2)ccc1Cl is listed with Vaccinia mCherry: -2%; VACV Venus inh: -19%
# Cc1cccc2cc(CN(Cc3ccco3)C(=O)c3ccncc3)c(=O)[nH]c12 is listed with Vaccinia mCherry: /; VACV Venus inh: -25%
